High-throughput results deposited in PubChem BioAssay by several laboratories.
Autofluor counter: counter-screen for toxin protease inhibitors: compound fluorescence; compound autofluorescence counterscreen, microsphere flow cytometry; active compounds read high; fluorescence intensity (no concentration beside the values); 360,000 compounds, 3.1% hits;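 active = at least 3 SD above the mean of all compounds, about 16000 in these data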;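 note: 100 nL of 1 mM stock went into each well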
Sa RN4220 lethal: S. aureus RN4220 growth inhibition. OD600, 16 h. inhibition, % (concentration not given with the values). 330,000 compounds, 0.33% hits. AID 1259311;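 active = z-score of -3 or lower and OD600 up to 0.18 on both plates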;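 note: plate controls were untreated cells for no effect and reference antibiotic for full effect; stock transfer was 100 nL into about 80 µL; one replicate is shown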
Sa ugtP lethal: growth inhibition of S. aureus ugtP deletion strain; growth inhibition, % (concentration not given with the values); 330,000 compounds, 0.54% hits; S. aureus RN4220 ugtP deletion, OD600 growth, 16 h; some inactives read as strong as hits;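 active = z-score under -3 and OD600 up to 0.15 on both plates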;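 note: plate controls were untreated wells for no effect and antibiotic for full effect; wells of about 80 µL received 100 nL stock; the first replicate is given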
PrP UTR inh: suppresses PrP 5' UTR mRNA reporter expression; cell-based PrP 5' UTR mRNA reporter, plate reader; inhibition, % (no concentration beside the values); 340,000 compounds, 0.35% hits; AID 488862;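 active = every replicate at 50% or more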;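 note: 0 = median of the neutral control wells; tested in H4 reporter cells; numbers are from one replicate; inactives centre near -14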
Mtb hypoxia rep: reduces hypoxia-regulated biosensor signal in M. tuberculosis; 300,000 compounds, 0.1% hits; M. tuberculosis hypoxia-regulated fluorescent reporter, fluorescence; fluorescence inhibition, % (concentration not given with the values);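 active = 35 to 45% if threefold the growth effect, above 45% if 1.5-fold the growth effect; inactive = the rest, general growth blockers included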;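 note: wells of about 50 µL received 100 nL stock; 0% = vehicle wells and 100% = reference inhibitor wells; whole bacteria with a GFP reporter of the hypoxia response; strong numbers were not always called active; many hits fall short of the cut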
BJeLR viability: BJeLR cell viability loss | inhibition, % (no concentration beside the values) | 300,000 compounds, 0.17% hits | BJeLR (HRASV12) viability, CellTiter-Glo ATP luminescence, 48 h; reference of the scale not given here;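 active = replicate mean above 50%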;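 note: 50 nL library stock added to about 25 µL; numbers are from one replicate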
Mtb hypoxia rep growth: second read-out of Mtb hypoxia rep, no call of its own (marks repeat the call); growth inhibition, %; measured here: M. tuberculosis growth (absorbance);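 0% = vehicle and 100% = reference antibiotic; read after six days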
Active calls of the source: *; / = not tested or not shown; & = joins results of further samples. Compounds as they come; any-hit rate near 4.1%.

SMILES | Autofluor counter | Sa RN4220 lethal | Sa ugtP lethal | PrP UTR inh | Mtb hypoxia rep | Mtb hypoxia rep growth | BJeLR viability
COc1ccc(Cl)cc1S(=O)(=O)n1c([N+](=O)[O-])cnc1C | 3839 | 6.5 | 12 | -12 | 4 | 8 | -13
Cc1ccc(C(=O)c2ccc([N+](=O)[O-])cc2)cc1C | 10721 | 14 | 11 | -22 | 2 | 0 | 1
CCOc1ccc(NC(=O)CSc2ncn[nH]2)c([N+](=O)[O-])c1 | 2457 | 2.5 | 11 | -12 | 11 | 1 | -15
Cc1cccc(CSC(=N)N)c1 | 2728 | -1.8 | 5 | 52* | 3 | -5 | 4
CC(C)COc1ccc(C2(C#N)CC[N+](C)(C)CC2)cc1 | 3348 | 1.3 | 5 | -14 | 4 | 6 | 4
CCOc1ccc(S(=O)(=O)NCCC(=O)NC(C)CCc2ccccc2)cc1 (stereo unspecified) | 6153 | 1.9 | 6 | -23 | 11 | -2 | 0
O=C(C1CCCCN1S(=O)(=O)c1ccccc1[N+](=O)[O-])N1CCCCC1 (stereo unspecified) | 2978 | 7.7 | 5 | -14 | 13 | 3 | -1
COc1cccc(C(=O)N2CCN(C(=O)C3CCCO3)CC2)c1 (stereo unspecified) | 3821 | 1.8 | 4 | -20 | 3 | 15 | /
CNCCc1nc(N)n[nH]1 | 3454 | 1.9 | 4 | -17 | / | / | -13
NC(=O)c1ccc(Nc2ccc([N+](=O)[O-])cc2[N+](=O)[O-])cc1 | 3701 | 6.7 | 1 | -21 | 11 | 2 | 7
Cc1cccc(S(=O)(=O)Nc2ccc(C)c3c2OC(C)(C)C3)c1 | 4509 | 12 | 5 | -19 | / | / | 4
O=C(NCC1CCCO1)C(C(=O)c1ccc(F)cc1)n1ccccc1=O (stereo unspecified) | 21506* | 5.3 | 12 | -25 | 8 | -1 | -2
O=C(OCC1CCC=CO1)C1CCC=CO1 (stereo unspecified) | 3045 | 6.1 | 7 | 3 | -1 | 0 | /
Cc1cc(-c2ccccc2)[nH]c(=O)c1C#N | 4010 | 4.3 | 3 | -2 | 11 | 6 | 7
O=C(CCn1nnc2ccccc21)Nc1nnc(Cc2ccc(F)cc2)s1 | 7478 | 5.4 | 5 | -26 | 3 | -2 | 6
COCCCNC(=O)c1ccc2c(=O)n(C3CCCC3)c(=S)[nH]c2c1 | 18736* | 0.6 | 0 | -15 | 4 | 15 | -3
CC1CC(C)CN(CCCNC(=O)CCNC(=O)Cn2ccc3ccccc3c2=O)C1 (stereo unspecified) | 7988 | 1.5 | 1 | -15 | 0 | 7 | 5
Cc1noc(C)c1COc1cccc(C(=O)OCC(=O)N2CC(=O)Nc3ccccc32)c1 | 3030 | 5.9 | -4 | 18 | 6 | 11 | 29
C[C@H](NC(=O)[C@H](Cc1ccccc1)NC(=O)c1cc2cc(Cl)ccc2n1C)C(=O)O | 4275 | -1.4 | 7 | -26 | 3 | -7 | 6
CSCCC(NC(=O)c1ccccc1Br)C(=O)NCc1ccc(F)cc1 (stereo unspecified) | 4137 | 6.3 | 3 | / | -1 | 1 | 7
CCOc1ccc2c(c1)OC(c1ccc(OC)cc1)(C(F)(F)F)NC2=O (stereo unspecified) | 10937 | 1.3 | -13 | -67 | -4 | -7 | 21
O=C(CN1C2CCCC1CC(NC(=O)c1ccccc1)C2)NC1CC1 (stereo unspecified) | 4140 | 4.5 | 9 | -21 | -2 | -4 | 8
COC(=O)CNC(=O)CSc1ccccn1 | 3333 | 0.8 | 2 | -17 | 4 | 1 | -2
Cc1cn(CCC(=O)Nc2ccc(N3CCOCC3)cc2)c2ccccc12 | / | 0.2 | -3 | -48 | -4 | 3 | -7
O=C(OCC#CCSc1nnc(-c2cccc3ccccc23)o1)c1ccc(Cl)cc1 | 2908 | 4.6 | 11 | -10 | / | / | /
O=C(C[C@H]1C/C=C/CC[C@H](Cc2ccc(F)cc2)C(=O)O[C@H](c2ccccc2)CNC1=O)NCCO | 3592 | 4.4 | -3 | -21 | -9 | -8 | /
CCOC(=O)C(Cc1ccnnc1)=NO | 3555 | -1.2 | -7 | 0 | -5 | 0 | /
COn1c(=O)c(=O)n(O)c2ccccc21 | 3752 | 7.9 | 5 | -17 | 10 | 4 | 5
COC(=O)C1CN(C(=O)C(C)Oc2ccccc2F)c2ccccc2O1 (stereo unspecified) | 3999 | 3.1 | 12 | -23 | -2 | -3 | 6
CCC(=O)c1ccc(Oc2nc3c(c(=O)n(C)c(=O)n3C)n2CC)cc1 | 3516 | -0.4 | 10 | 58* | 2 | -2 | -16
CCOC1OC(C(=O)O)=CC(c2ccc(C(F)(F)F)cc2)C1CCCO (stereo unspecified) | / | 3.3&2.3 | 3&2 | / | 4&16 | 8&11 | /
Cc1cc(C)cc(C(=O)Nc2cc3c4c(c2)CC(=O)N4CCC3)c1 | / | -1.0 | 2 | -1 | -2 | 12 | -1
CCOc1ccc(C=NNc2nncc(-c3ccccc3)n2)cc1OC | / | 13 | 9 | / | 0 | 1 | /
O=C(CCC1COc2ccccc2O1)NCc1ccco1 (stereo unspecified) | 3566 | 2.4 | 2 | 4 | / | / | -7
Cc1ccccc1N1C(=O)c2sc3nc4c(c(=O)n3c2C1=O)CCC4 | 4287 | -3.3 | 6 | -17 | -15 | -5 | -8
Oc1ccc(/C=N/N(c2ccccc2)c2ccccc2)c(O)c1O | 4771 | / | / | -20 | / | / | 2
Cc1ccc(S(=O)(=O)N2CCN(C(=S)NCC3CCCO3)CC2)cc1 (stereo unspecified) | 3966 | -3.3 | 0 | -27 | -9 | 0 | -24
COc1ccc2[nH]cc(C(O)CN3CCN(c4ccccc4F)CC3)c2c1 (stereo unspecified) | / | 1.9 | -1 | -17 | 3 | 0 | -3
Cn1ccc(C=N/N=C2/NC(=O)CS2)n1 | / | -0.6 | 4 | / | 6 | 7 | /
COc1ccc(S(=O)(=O)N2CCCC(C(=O)NCCC3=CCCCC3)C2)cc1 (stereo unspecified) | 5047 | -0.4 | 0 | -15 | / | / | 23
CCCOC(=O)c1ccc(OCC(O)CN2C(=O)NC(C)(C)C2=O)cc1 (stereo unspecified) | 10287 | 4.6 | -5 | -26 | -3 | 3 | -11
COc1ccc(S(=O)(=O)N2CC3C4C=CC(C4)C3C2)cc1 (stereo unspecified) | 5403 | 5.1 | 10 | -15 | 12 | 2 | -6
Cc1c(NC(=O)C(C)OC(=O)c2sc3ccccc3c2Cl)c(=O)n(-c2ccccc2)n1C (stereo unspecified) | 2440 | 4.3 | 2 | -17 | 13 | 8 | -7
O=C(NCc1ccccc1Cl)C1CCN(S(=O)(=O)c2ccc(F)cc2)CC1 | 4192 | 3.1 | 1 | -32 | 2 | 4 | 0
C=CCN1C(=O)C(C)NC1=S (stereo unspecified) | 3631 | 2.3 | 7 | -16 | 9 | 6 | 1
CCC1(C)Cc2nc3[nH]c(=S)n(-c4ccc(C)cc4)c(=O)c3cc2CO1 (stereo unspecified) | 2127 | 6.2 | 2 | -18 | -16 | 4 | 1
COc1ccccc1C=NNC(=O)CSc1ccc2ccccc2n1 | / | 1.9 | 17 | / | 5 | -6 | /
CC(C)n1c(NCCO)nc2ccccc21 | 5153 | 2.9 | 0 | -9 | 0 | 16 | -2

A different layout for part of the listing above:
SMILES	Autofluor counter	Sa RN4220 lethal	Sa ugtP lethal	PrP UTR inh	Mtb hypoxia rep	Mtb hypoxia rep growth	BJeLR viability
Cc1ccc(S(=O)(=O)N2CCN(C(=S)NCC3CCCO3)CC2)cc1 (stereo unspecified)	3966	-3.3	0	-27	-9	0	-24
COc1ccc2[nH]cc(C(O)CN3CCN(c4ccccc4F)CC3)c2c1 (stereo unspecified)	/	1.9	-1	-17	3	0	-3
Cn1ccc(C=N/N=C2/NC(=O)CS2)n1	/	-0.6	4	/	6	7	/
COc1ccc(S(=O)(=O)N2CCCC(C(=O)NCCC3=CCCCC3)C2)cc1 (stereo unspecified)	5047	-0.4	0	-15	/	/	23
CCCOC(=O)c1ccc(OCC(O)CN2C(=O)NC(C)(C)C2=O)cc1 (stereo unspecified)	10287	4.6	-5	-26	-3	3	-11
COc1ccc(S(=O)(=O)N2CC3C4C=CC(C4)C3C2)cc1 (stereo unspecified)	5403	5.1	10	-15	12	2	-6
Cc1c(NC(=O)C(C)OC(=O)c2sc3ccccc3c2Cl)c(=O)n(-c2ccccc2)n1C (stereo unspecified)	2440	4.3	2	-17	13	8	-7
O=C(NCc1ccccc1Cl)C1CCN(S(=O)(=O)c2ccc(F)cc2)CC1	4192	3.1	1	-32	2	4	0
C=CCN1C(=O)C(C)NC1=S (stereo unspecified)	3631	2.3	7	-16	9	6	1

Going on with the list.
SMILES | Autofluor counter | Sa RN4220 lethal | Sa ugtP lethal | PrP UTR inh | Mtb hypoxia rep | Mtb hypoxia rep growth | BJeLR viability
CCCCn1c(O)c(C(C)=NCCc2ccccc2)c(=O)[nH]c1=O | 3223 | 4.0 | -6 | 6 | 13 | 4 | 19
Cc1ccc(CNC(=O)CCCc2ccccc2)cc1 | 4328 | 5.4 | 2 | -35 | 12 | 1 | -4
COc1ccc(C(NCC(=O)Nc2c(C)cccc2C)c2ccccc2)cc1 (stereo unspecified) | 3665 | 4.3 | 3 | 0 | -11 | 13 | -6
NC(=O)CSc1nc2scc(-c3ccco3)c2c(=O)n1-c1ccccc1 | 4342 | 3.9 | 12 | -5 | 11 | 11 | -11
CCOC(=O)C(C(C)=O)C(c1ccc(OCCC(C)C)cc1)C(C(C)=O)C(=O)OCC (stereo unspecified) | 12650 | 2.2 | 9 | -5 | 5 | 3 | 2
O=C(Nc1nc(-c2ccccn2)cs1)c1cc(S(=O)(=O)N2CCOCC2)ccc1F | 2694 | 8.5 | 1 | 4 | -1 | 5 | /
O=C(NCc1ccc2c(c1)OCO2)c1cc(-c2ccccc2Cl)on1 | 4626 | -4.2 | 10 | -5 | -3 | 0 | 17
O=C(COc1ccc(Br)cc1)OCC(=O)N1CCOCC1 | 3520 | 3.8 | 4 | -5 | -4 | -4 | /
COc1ccccc1P(=O)(c1ccccc1)c1ccccc1NC(C)=O (stereo unspecified) | 6096 | 0.7 | 7 | -35 | 0 | 0 | -17
O=C(Oc1cccc([N+](=O)[O-])c1)C1CCN(C(=O)c2ccc(F)cc2)CC1 | 5687 | -0.5 | 9 | -19 | 13 | 4 | -4
CCC(C)c1ccc(NC(=O)c2cccs2)cc1 (stereo unspecified) | 4481 | 2.8 | -2 | -107 | 11 | 5 | 9
O=C(c1cc2cc(Br)ccc2o1)N1CCN(c2ccccc2)CC1 | 5313 | 7.7 | 8 | -55 | 9 | 5 | -8
Cn1nnnc1SCC(=O)NCCCc1ccccc1 | 3752 | -1.1 | 7 | 7 | / | / | 5
C=CCn1c(SC)nnc1C1COc2ccccc2O1 (stereo unspecified) | 4892 | 2.6 | 5 | -15 | 3 | 1 | -12
O=C(NC1CCN(C(=S)NCc2ccco2)CC1)c1cccc(F)c1 | 4379 | 3.6 | 18 | -41 | 2 | 9 | 1
COc1ccc(NC(=O)CN2C(=O)NC(C)(c3ccccc3)C2=O)cc1Cl (stereo unspecified) | 6265 | 0.2 | -2 | -28 | 11 | -4 | 8
COc1ccc(S(=O)(=O)N2CCOCC2)cc1NC(=O)CN1C(=O)NC(C)(C2CC2)C1=O (stereo unspecified) | 3433 | 3.5 | 7 | -31 | 9 | 7 | /
N#CC(=C(O)COC(=O)CCCNC(=O)c1ccc(Cl)cc1)c1nc2ccccc2[nH]1 | 4461 | -0.9&1.4 | -6&-4 | -9 | 1&2 | 1&1 | /
O=S1(=O)[C@H]2C[C@@H]3C=C[C@@]2(CN1Cc1cccc(Cl)c1)O3 | 3758 | -7.9 | 3 | -3 | 5 | -4 | -4
CC(=O)Nc1ccc(Nc2nc(C)cc(C)n2)cc1 | / | 4.8 | 4 | -12 | 5 | -2 | 2
COC(=O)NN=C(CCC(=O)O)c1cccs1 | / | 4.4 | 5 | / | 14 | -4 | /
NS(=O)(=O)c1ccc(CCNc2nc(CN3CCOCC3)nc3sc4c(c23)CCC4)cc1 | 2486 | 0.8 | 2 | -23 | / | / | -11
CCCN(C(=O)CSc1nnc(-c2ccoc2C)n1N)C1CCS(=O)(=O)C1 (stereo unspecified) | 3425 | -0.9 | 0 | -16 | 14 | 4 | 1
